VACV mCherry inh – vaccinia inhibition (mCherry reporter); Potency, µM (top dose mostly 36.5 µM), for inactives: top-dose activity change, negative = inhibition, most hits filed as inhibitors; Vaccinia virus mCherry reporter infection, fluorescence; about a quarter of the inactives have no number; 0.63% of 310,000 active; AID 720579; active = well fitted inhibition curve with a large enough effect; inconclusive = small, poorly fitted or top-dose-only effect; inactive = no such curve, though single readings can be large or run the other way; tested in A549 cells; also: nearly all actives have a fitted effect of over 35% in size; inactives centre near -10
Vaccinia Venus – vaccinia inhibition (Venus reporter); Vaccinia virus Venus reporter expression, fluorescence; 0.46% of 330,000 active; Potency, µM (top dose mostly 36.5 µM), without a hit: at the highest dose activity change, negative = inhibition, actives largely listed as inhibitors; active means well fitted inhibition curve with a large enough effect; inconclusive means small, poorly fitted or top-dose-only effect; inactive means no such curve, though single readings can be large or run the other way; tested in A549 cells; also: nearly all actives have a fitted effect of over 30% in size; inactives centre near -10
The depositor's hits bear a star; i = inactive; ? = inconclusive; nt = no result given; & = joins results of further samples; [ ] = dose if it differs, or a comment. % is scaled to controls: 0 for no effect and ±100 for the full control effect; potency is read from the fitted curve at half-maximal effect. Hits appear at their usual frequency; overall some 0.88% were active at least once.

#	Molecule	VACV mCherry inh	Vaccinia Venus
1	CC(=O)N1CCN(C(=S)c2ccc([N+](=O)[O-])cc2)CC1	2%	1%
2	CCOP(=O)(OCC)C1(C(=O)O)CCCC1	-17%	-11%
3	CCN(CC(=O)Nc1ccc(S(N)(=O)=O)cc1)S(=O)(=O)c1cc(C)ccc1OC	nt	-15%
4	CC(=O)n1cc([C@H]2C=C(C(=O)NCc3ccccc3)O[C@@H](OCc3ccc(CO)cc3)C2)c2ccccc21	?	?
5	Cc1cc(C(=O)COC(=O)CC2Sc3ccccc3NC2=O)c(C)n1-c1ccc(Br)cc1 (stereo not drawn)	i	-19%
6	O=C(Oc1ccc2c(c1)OCO2)C12CC3CC(CC(C3)C1)C2	i	9%
7	COc1ccccc1NC(=O)CSCC(=O)N1c2ccccc2CCc2ccccc21	-30%	?
8	COc1ccc(CCNC(=O)COc2nncc3ccccc23)cc1	-3%	-2%
9	CC(=O)Nc1ccc(NC(=O)CSc2nnc(-c3ccco3)o2)cc1	i	-4%
10	O=C(CSc1nc2ccccc2c(=O)n1CCC(=O)NC1CCCCC1)Nc1ccccc1Cl	1%	-3%
11	COc1cc2c(cc1OC)CN(CCC(=O)c1ccc(Br)cc1)CC2	-1%	-16%
12	O=C(COc1ncnc2ccccc12)NCCc1ccccc1	i	0%
13	COc1ccc(Cl)cc1-n1c(N)c(C(N)=O)sc1=S	-4%	-19%
14	CCOCC(=O)Nc1nnc(C2CCCCC2)s1	-24%	-14%
15	Brc1ccc(-c2nc(-c3ccccn3)no2)o1	i	-25%
16	COCCCNC(=O)c1cc(C(=O)c2ccccc2Br)c[nH]1	-11%	-11%
17	COc1ccc2c(c1OC)C(=O)N1C2SC[C@H]1C(=O)NC1CC(C)(C)NC(C)(C)C1 (stereo partly drawn)	-14%	-10%
18	O=C(c1ccccc1)N1CCN(c2ccc(N3CCOCC3)nn2)CC1	-15%	-3%
19	COCCn1c(SC(C)C(=O)Nc2ccc(N3CCOCC3)cc2)nnc1-c1ccncc1 (stereo not drawn)	-17%	-12%
20	CC(=O)OCC1=C(C(=O)O)N2C(=O)C(NC(=O)Cc3cccs3)C2SC1 (stereo not drawn)	-12%	3%
21	O=C1CN(c2nnnn2-c2ccccc2)CCN1	nt	-2%
22	COc1ccc(-c2cn(CC[C@@H]3CC[C@H](NC(=O)Cc4ccccn4)[C@@H](CO)O3)nn2)cc1	-14%	-8%
23	Cc1ccc(CNC(=O)CSc2nc3ccsc3c(=O)n2Cc2ccccc2F)cc1	-7%	-10%
24	O=C(Nc1cccc(Cl)c1)N1CCC(CO)(CCOc2ccccc2)CC1	i	-11%
25	Cc1cnc(NC(=O)Cc2cccs2)s1	-12%	-12%
26	Cc1ccc(S(=O)(=O)N/N=C\c2ccc([N+](=O)[O-])o2)cc1	-14%	-3%
27	O=C(NCc1ccccc1Cl)c1cccc(OC2CCN(C(=O)C3CC3)CC2)c1	?	-21%
28	CCc1nc(SCC(=O)Nc2ccc(F)cc2)c2c(=O)n(C)c(=O)n(C)c2n1	i	-4%
29	Cc1ccc(CN(Cc2ccco2)C(=O)COc2ccc(C(C)C)cc2)cc1	-11%[7.34 µM]	-6%[7.34 µM]
30	COc1ccc(-c2nc3sc(CCNC(=O)C(=O)Nc4ccccc4C#N)c(C)n3n2)cc1	i	-9%
31	COC(=O)C1=CN(Cc2cccs2)C=C(C(=O)OC)C1c1cccc(Cl)c1	-15%	-17%
32	C[C@@H](CO)NC(=O)c1nc[nH]c1C(=O)N[C@H](C)c1ccccc1	-17%	-4%
33	CCCc1nc2oc(C(=O)c3ccccc3)c(N)c2c2c1COC(C)(C)C2	nt	-9%
34	CCCC(=O)Nc1ccc(C=C(C(C)=O)C(C)=O)cc1	-21%	-20%
35	C/C=C/C(=O)Nc1cccc(C2=NOC3(C2)C[C@@H](C(N)=O)N(C(=O)c2cc([N+](=O)[O-])cc([N+](=O)[O-])c2)C3)c1 (stereo partly drawn)	i	-10%
36	O=C(CSc1nnc(-c2ccccc2)n1-c1ccccc1)c1ccc[nH]1	-14%	-3%
37	C=CCn1c(SCc2nc3ccccc3nc2C)nnc1-c1ccoc1C	-13%	-9%
38	CC(C)CN(CCCNC(=O)c1cc(-c2ccc(Br)s2)nc2ccccc12)CC(C)C	-12%	-11%
39	O=C(/C=C/c1cccc([N+](=O)[O-])c1)N1CCN(S(=O)(=O)c2cccs2)CC1	-18%	2%
40	C=CC[C@H](CC(=O)N(CCO)Cc1ccccc1)C(=O)N[C@@H](COC(=O)[C@@H](CC=C)Cc1ccc(F)cc1)Cc1ccccc1	-13%	?
41	O=C(CCc1nnc(C2CCCCC2)o1)N1CCN(C2CCCCC2)CC1	-8%	1%
42	O=C(CS(=O)(=O)Cc1ccccc1)Nc1ccc(Br)cc1F	-14%	-5%
43	COc1ccc(/C=N/NC(=O)c2ccc3ccccc3c2)cc1OS(=O)(=O)c1ccc(NC(C)=O)cc1	-13%	-29%
44	O=C(Oc1ccc2c(=O)c(Cl)coc2c1)c1cccnc1	-10%	-6%
45	Cc1ccc(S(=O)(=O)N(CC(O)CN2CCOCC2)c2cc(Cl)ccc2Cl)cc1 (stereo not drawn)	-18%	-17%
46	Cc1ccc(-c2ccc(/C=C/C(=O)c3ccccc3)o2)cc1	-1%	-7%
47	CCOC(=O)c1nc(Nc2ccc(C(C)=O)cc2)c2ccccc2n1	-14%&12%	1%&8%
48	OCC[C@H]1C[C@H](O)[C@@H](O)[C@]2(Cc3ccccc3CCO2)O1	i	-7%
49	Fc1ccc(-c2n[nH]c(=S)n2-c2ccc3c(c2)OCCO3)cc1	-10%	-4%
50	CCOP(=O)(c1ccccc1)C(O)c1ccc(F)cc1 (stereo not drawn)	-14%	-10%
51	COc1ccc(Cc2c(-c3ccc(C#N)cc3)nc3c4ccccc4ccn23)c(C)c1	-12%	-6%
52	COCC1CCN(C(=O)c2ccc3oc(C(C)C)nc3c2)C1 (stereo not drawn)	-15%	-15%
53	NS(=O)(=O)c1ccc(NCc2cnc3ccccc3c2)cc1	i	-13%
54	C=C(C)c1cccc(C(C)(C)NC(=O)NC(c2ccccc2)c2ccc(OC)cc2)c1 (stereo not drawn)	-9%	-15%
55	COc1ccc(Cl)cc1N1C(=O)[C@@H]2C(c3cccc(OC)c3OC)=NO[C@@H]2C1=O	-2%	?
56	COCCNC(=O)CCC1CCN(C/C=C/c2ccccc2OC)CC1	?	-3%
57	Nc1ccccc1C#Cc1ccccc1	-26%	?
58	COc1ccc(Oc2nc3c(c(=O)n(Cc4ccccc4Cl)c(=O)n3C)n2C)cc1	-14%	4%
59	CC(C)(C)c1ccc(OCCC(=O)OCC(=O)N2c3ccccc3NC(=O)C2(C)C)cc1	i	-15%
60	O=C(NCc1ccc2c(c1)OCO2)c1ccccc1	-11%	-21%

Compound profiles, as listed above:
Entry for COc1ccc(Cc2c(-c3ccc(C#N)cc3)nc3c4ccccc4ccn23)c(C)c1 : VACV mCherry inh: -12%; Vaccinia Venus: -6%
Entry for CCOCC(=O)Nc1nnc(C2CCCCC2)s1 : VACV mCherry inh: -24%; Vaccinia Venus: -14%
Entry for O=C(Oc1ccc2c(c1)OCO2)C12CC3CC(CC(C3)C1)C2 : VACV mCherry inh: i; Vaccinia Venus: 9%

The main list resumes, starting two compounds before the break.
#	Molecule	VACV mCherry inh	Vaccinia Venus
59	CC(C)(C)c1ccc(OCCC(=O)OCC(=O)N2c3ccccc3NC(=O)C2(C)C)cc1	i	-15%
60	O=C(NCc1ccc2c(c1)OCO2)c1ccccc1	-11%	-21%
61	COc1ccc2c(c1)CC(NC(=O)Nc1c(C)cc(C)cc1C)CO2 (stereo not drawn)	-16%	-9%
62	COc1ccc(NC(=O)c2cnc(N3CCCCC3)c3ccccc23)cc1Cl	-16%	-21%
63	Cc1cc(C)nc(SCc2ccc(C(=O)N/N=C/c3ccco3)cc2)n1	-4%	-17%
64	COCCNC(=O)C1(C)CCCN(C(=O)c2ccc(F)c(Cl)c2)C1 (stereo not drawn)	i	-1%
65	CS(=O)(=O)Nc1ccccc1C(=O)N1CCCC1	nt	-9%
66	CC(=O)C1=NOC2C(=O)N(c3ccccc3)C(=O)C12 (stereo not drawn)	i	-9%
67	COC(=O)c1ccc(N/C(=N/S(=O)(=O)c2ccccc2)c2ccccc2)cc1	i	-2%
68	COc1ccc2ccc(O)c(CN3CC=C(c4ccccc4)CC3)c2c1	-14%	-9%
69	O=C(CSc1nnc(-c2n[nH]c3ccccc23)n1-c1ccccc1)Nc1cccc(Cl)c1	?	-26%
70	O=C(NCc1ccco1)c1ccc2c(c1)S(=O)(=O)c1ccccc1C2=O	-12%	-15%
71	COc1ccc(Br)cc1/C=C(\C(=O)O)c1ccc(S(=O)(=O)N2CCCCC2)s1	-7%	2%
72	O=C(CCl)NNc1cccc(Cl)n1	nt	-10%
73	Cc1ccc(S(=O)(=O)N2CCN(C(=O)c3cc(C4CC4)nn3-c3ccccc3)CC2)cc1	i	-28%
74	CN(C)CCCCCCNc1cc(N2CCN(C)CC2)ncn1	-6%	-11%
75	CCOc1ccc(NC(=O)[C@H]2O[C@@H]3OC(C)(C)O[C@@H]3[C@H]3OC(C)(C)O[C@H]32)cc1	i	-10%
76	O=C(c1ccc2c(c1)N(Cc1ccccc1F)C(=O)c1ccccc1S2(=O)=O)N1CCCCCC1	21%	10%
77	CC1CCN(C(=O)Cn2c3ccccc3c3nc4n(c(=O)c32)CCCS4)CC1	-6%	-5%
78	CSc1ccccc1OCc1cc(C(=O)N2CCN(C3CCCC3)C(=O)C2)no1	-26%	-18%
79	Cc1ccc(C(C)C)c(OCc2n[nH]c(=S)o2)c1	i	-10%
80	NC(=O)c1ccc(NC(=O)COC(=O)CCSc2ccccc2)cc1	i	-6%
81	c1ccc(-n2nnc3ccccc32)nc1	i	-12%
82	Cc1ccc(C)c(N2CCN(C(=O)C3CCCN(S(=O)(=O)c4c(C)noc4C)C3)CC2)c1 (stereo not drawn)	12%	-20%
83	CCCc1c(C)c2c(C)[nH]nc2oc1=O	nt	-21%
84	Cc1noc(C)c1COc1ccccc1C(=O)N(C)CC(=O)Nc1cccc(F)c1	-15%	-11%
85	COc1ccc(-c2cn3cccnc3n2)cc1NC(=O)COc1ccccc1	?	-27%
86	NS(=O)(=O)c1ccc(N=Cc2c(O)n(-c3ccccc3)c(=O)[nH]c2=O)cc1	1%	-1%
87	CN1CCN(Cc2nc3c(c(=O)n(C)c(=O)n3C)n2CCCc2ccccc2)CC1	-7%	-3%
88	CC1CCN(CCCn2c(=S)[nH]c3c(sc4ccccc43)c2=O)CC1	-1%	-16%
89	CS(=O)(=O)c1ccc2nc(NC(=O)C3CCCO3)sc2c1 (stereo not drawn)	-4%	-10%
90	O=C(Nc1cccc(Cl)c1)O/N=C\c1ccncc1	-20%	-4%
91	O=C1C2CC=C(Cl)CC2C(=O)N1CCN1CCOCC1 (stereo not drawn)	nt	-9%
92	COc1ccc(CNC(=O)C[C@H]2C[C@H](C(=O)N3CCOCC3)[C@@]3(CCC4CCCC4)c4[nH]c5ccc(Cl)cc5c4CCN3C2=O)cc1OC	-28%	?
93	O=C1NC(=O)C(c2ccccc2)(C2CCCC2)N1 (stereo not drawn)	-3%	4%
94	COc1ccc(C(O)C(O)(C(=O)OC(C)C)c2ccc(C)cc2)cc1 (stereo not drawn)	-18%	-12%
95	O=C(Nc1ccc2c(c1)OCO2)c1cn(Cc2ccc(F)cc2)nn1	i	-13%
96	COc1ccccc1OCC(=O)O	nt	-11%
97	CCc1nc(SCC(=O)Nc2ccc(C(=O)O)cc2)n[nH]1	-11%	-11%
98	COC(=O)c1ccc(Cl)cc1NC(=O)Nc1nnc(N2CCCC2)s1	2%	-11%
99	O=C(O)c1cccc(-n2cccc2/C=C2/NC(=O)N(c3ccc(Cl)cc3)C2=O)c1	-1%	-2%
100	CC(C)(C)c1ccc(CC(=O)N2CCC2(C)C(=O)Nc2cnc3ccccc3c2)cc1 (stereo not drawn)	11%	-10%
101	COCCN(C(=O)CNC(=O)c1ccco1)C(C(=O)NC1CCCCC1)c1cccs1 (stereo not drawn)	i	-9%
102	CN(Cc1nc(-c2cnccn2)no1)CC1(c2ccccc2)CC1(C)C (stereo not drawn)	i	-14%
103	Cc1ccc(F)c(S(=O)(=O)NC(=O)C2(C)CCN2C(=O)CCC2CCCC2)c1 (stereo not drawn)	-5%	7%
104	CC(OC(=O)CCC(=O)N1CCN(S(=O)(=O)c2ccc3ccccc3c2)CC1)C(=O)NC(N)=O (stereo not drawn)	i	-17%
105	CCOC(=O)CSc1nnc(-c2cccnc2)o1	nt	1%
106	COc1ccc2c(CN3CCCCC3)cc(=O)oc2c1	15%	-4%
107	COc1cc(-c2nnc(COc3ccc(Cl)cc3C)o2)cc(OC)c1OC	-4%	-4%
108	COc1ccccc1C(=O)NCC(=O)OCC(=O)Nc1cccc(S(=O)(=O)N(C)C)c1	-3%	11%
109	CCN1CCN(CCC(=O)Nc2cc(C)ccc2C)CC1	-2%	-3%
110	CCCCc1nc2n[nH]c(N)c2c2c1CCCC2	-11%	0%
111	Cc1cc(-n2c(SCC(=O)NCc3ccccc3)nc3ccsc3c2=O)ccc1Cl	0%	-9%
112	CCN(CC)S(=O)(=O)c1ccc(NC(=O)[C@H](CCSC)N2Cc3ccccc3C2=O)cc1	-29%	-18%

Bioassay records deposited in PubChem by National Center for Advancing Translational Sciences (NCATS).
